T cruzi inh = inhibitors of intracellular T. cruzi growth, primary screen, luminescence, NIH3T3 host cells. T. cruzi beta-gal in NIH3T3, 90 h. inhibition, % (test concentration not listed). actives 1.4% (n = 300,000);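 active = mean inhibition across valid replicates above about 55%, limit read from the data; inconclusive = mean below that limit but half or more replicates reach it; inactive = mean below it, under half of replicates reach it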;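 note: signal also drops with host cell toxicity which is not excluded here; 0% = plate median of DMSO wells and 100% = zero luminescence signal; higher percent means less beta-gal luminescence so fewer parasites; stock transfer was 50 nL into about 50 µL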
E coli growth = E. coli growth inhibition, primary screen, OD600; OD600 absorbance (concentration not given with the values); actives 0.21% (n = 330,000); AID 1053175, 2014; Escherichia coli growth, 23 h; hits give low values;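 active = OD600 absorbance below the run mean of sample wells minus 3.6 SD, in any replicate, cut at about 0.56 in these data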;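 note: stock transfer was 300 nL into about 60 µL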
MLL AF4-AF9 inh = inhibitors of AF4 peptide binding to AF9, primary screen, biochemical, AlphaScreen, biotin-AF4 peptide, FLAG-AF9, single point; Protein AF-9 (Homo sapiens), P42568; inhibition, % at 10 µM; actives 0.47% (n = 350,000); AID 651704, 2012;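 active = every replicate reaching a set inhibition limit, whatever the replicate mean, cut at about 25% in these data; inconclusive = mean inhibition reaches that limit but some replicates miss it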;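 note: 0% = plate neutral control median and 100% = total signal loss; the record names both 10 and 1 µM as test concentration; the first replicate is given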
Target sequence (P42568 whole entry, looked up): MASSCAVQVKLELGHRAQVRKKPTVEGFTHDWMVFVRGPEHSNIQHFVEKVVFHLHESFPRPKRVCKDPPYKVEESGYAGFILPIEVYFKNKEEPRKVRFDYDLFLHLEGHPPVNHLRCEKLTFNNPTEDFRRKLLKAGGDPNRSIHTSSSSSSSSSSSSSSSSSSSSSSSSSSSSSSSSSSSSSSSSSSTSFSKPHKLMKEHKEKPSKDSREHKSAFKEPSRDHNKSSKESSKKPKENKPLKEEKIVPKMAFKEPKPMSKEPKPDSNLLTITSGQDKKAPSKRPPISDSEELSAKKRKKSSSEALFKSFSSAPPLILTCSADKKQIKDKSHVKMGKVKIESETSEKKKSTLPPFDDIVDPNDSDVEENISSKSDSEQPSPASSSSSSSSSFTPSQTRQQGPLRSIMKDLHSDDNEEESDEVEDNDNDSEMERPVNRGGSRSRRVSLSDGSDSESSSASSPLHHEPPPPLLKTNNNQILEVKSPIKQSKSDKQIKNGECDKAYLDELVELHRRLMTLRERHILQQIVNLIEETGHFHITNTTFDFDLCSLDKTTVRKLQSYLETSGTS
Beta apoptosis = inhibitors of cytokine-induced beta cell apoptosis, primary screen, luminescence | INS-1E cytokine-induced death, ATP luminescence, 48 h; percent of positive-control rescue, neutral wells zero | protection from apoptosis, % (no concentration beside the values) | actives 0.8% (n = 300,000) | AID 435005, 2010;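 active = all replicates at 75% or more, or half of them and the mean; inconclusive = half reach 75% but not the mean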;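 note: 0% = cytokine-treated negative control wells and 100% = positive control rescue; higher means more ATP so stronger rescue from cytokine killing; wells of about 40 µL received 100 nL stock; the first replicate is given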
UCH37 inh = inhibitors of human UCH37 deubiquitinase, primary screen, biochemical, Ub-AMC cleavage, fluorescence; inhibition, % (concentration not given with the values); AID 588478, 2011; Ubiquitin carboxyl-terminal hydrolase isozyme L5 (Homo sapiens), Q9Y5K5; purified proteasome/UCH37; actives 0.33% (n = 330,000);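 active = mean of two replicates above 20%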;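 note: 0% = compound-free wells with enzyme and 100% = wells lacking proteasome; stock transfer was 100 nL into about 20 µL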
Target sequence (Q9Y5K5 whole entry, looked up): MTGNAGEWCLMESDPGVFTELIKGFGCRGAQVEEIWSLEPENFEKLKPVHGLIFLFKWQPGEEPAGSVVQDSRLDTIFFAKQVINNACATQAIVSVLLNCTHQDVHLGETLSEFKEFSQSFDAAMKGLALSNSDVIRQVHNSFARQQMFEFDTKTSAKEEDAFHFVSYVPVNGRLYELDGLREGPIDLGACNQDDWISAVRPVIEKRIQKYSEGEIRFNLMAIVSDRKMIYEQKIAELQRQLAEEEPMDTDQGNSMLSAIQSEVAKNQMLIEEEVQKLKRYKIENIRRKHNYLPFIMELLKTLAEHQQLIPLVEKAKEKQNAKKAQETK
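Schedule: 30 min plus 25 min, room temperature / Material: human UCH37 within purified proteasomes / Technique: AMC fluorescence intensity at 355/460 nm / Buffer or medium: pH 7.4 Tris-HCl (50 mM) with ovalbumin, ATP-MgCl2, DTT / Controls: wells without proteasome as full block, compound-free enzyme plus substrate as uninhibited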
FGF22 binding = binders of human FGF22 protein, primary screen, FGF22 synaptogenesis inhibitor project, biophysical, thermal shift, single point; actives 1.5% (n = 340,000); recombinant FGF22 thermal shift, SYPRO orange fluorescence; percent of sucrose octasulfate shift, DMSO zero; calls only at 9.99 µM;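 active = melting point raised past a set limit in the mean and every replicate; inconclusive = no clear call; three in four hits are not shown here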
Target sequence (Q9HCT0 whole entry, looked up): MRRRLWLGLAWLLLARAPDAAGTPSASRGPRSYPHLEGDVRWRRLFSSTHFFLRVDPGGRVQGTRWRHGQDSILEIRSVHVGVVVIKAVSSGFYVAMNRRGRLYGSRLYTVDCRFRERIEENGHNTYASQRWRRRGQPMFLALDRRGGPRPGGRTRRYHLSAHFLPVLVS
Bfl-1 A1 inh = caspase 3/7 activation in MEF A1-2A-BIM cells, primary screen, A1 inhibitor project, cell-based, luminescence, HTS. caspase activation, % (test concentration not listed). Caspase-Glo 3/7 luminescence, 3 h; percent of clofoctol response, vehicle zero. actives 0.066% (n = 330,000);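 active = over half of replicate activation scores above 10%, or exactly half above 10 with the replicate mean above 10; inconclusive = replicate mean below 10 yet half the replicates above 10; inactive = over half of replicates below 10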;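 note: wells of about 30 µL received 50 nL stock; many hits fall short of the cut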
Ecoli rRNA inh = reduced GFP signal of wild-type E. coli, primary screen, bacterial rRNA inhibitor project, GFP/RFP fluorescence, OD600, single point. GFP signal change (wild-type ribosome), % (no concentration beside the values). actives 1.6% (n = 350,000). E. coli WT GFP vs humanized-ribosome RFP mutants, 24 h; hits give low values; DMSO median 0, no signal -100;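 active = significant combined selectivity score with lowered wild-type GFP, culture density cut under 30%, mutant RFP and density less affected; inactive = any of these conditions unmet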; note: one replicate is shown; some compounds called inactive have numbers as strong as hits
Ecoli rRNA inh OD600 = further read-out of Ecoli rRNA inh, marked with its call; OD600 change, %; measured here: OD600 growth;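 optical density of the mix in the first replicate; 0 = DMSO median and -100 = no signal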
Ecoli rRNA inh RFP = also measured in Ecoli rRNA inh; calls as there; RFP signal change, %; measured here: RFP humanized mutant strains;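 first replicate; 0 = DMSO median and -100 = no signal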
* marks the source's active call; other numbers are inactive results; i = inactive; ? = inconclusive; nt = not tested or not shown. Some of the compounds tested, so the mix of outcomes need not match the whole.

SMILES | T cruzi inh | E coli growth | MLL AF4-AF9 inh | Beta apoptosis | UCH37 inh | FGF22 binding | Bfl-1 A1 inh | Ecoli rRNA inh | Ecoli rRNA inh OD600 | Ecoli rRNA inh RFP
O=C1C=C(c2ccc3ncccc3c2)C[C@@H](c2ccc3c(c2)OCO3)C1 | nt | 0.774 | 6.7 | 9.4 | 6.1 | i | 0.0 | 7.0 | 1.7 | 6.2
COc1cc(C)ccc1OCCON1C(=O)CCC1=O | 6.4 | 0.708 | -1.6 | -1.7 | 0.1 | i | -0.7 | 22.1 | 11.3 | -0.2
Cc1sc2ncnc(N3CCC(C(=O)Nc4cc(S(C)(=O)=O)ccc4Cl)CC3)c2c1C | 16.6 | 0.652 | -1.9 | 12.9 | -1.1 | i | -0.3 | -2.7 | 4.5 | 1.5
COc1ccc(NC(C)=O)cc1NC(=O)CSc1nnc(C2CCCCC2)n1N | -10.4 | 0.705 | -2.7 | -4.1 | 6.6 | i | 0.0 | 2.3 | 3.8 | -2.1
CN1CCN(c2ccc(NC(=O)c3ccc(Cl)cc3)cn2)CC1 | 15.3 | 0.695 | 5.2 | 3.7 | -1.2 | i | -0.5 | 6.2 | -2.0 | -5.1
CCOC(=O)N1CCN(c2ccccc2O)CC1 | 2.3 | 0.728 | nt | -1.1 | 0.1 | nt | -0.4 | nt | nt | nt
COc1ccc(OC)c(-c2cc(C(=O)N3CCOCC3)no2)c1 | 0.4 | 0.653 | 0.6 | -6.7 | 1.0 | i | -0.4 | -1.6 | -4.4 | -0.5
Cc1ccc(NC(=O)CN(C)C(=O)CSc2nnc(NC(C)C)s2)cc1 | nt | 0.628 | 1.3 | nt | 4.4 | i | nt | 4.8 | 10.7 | 0.9
O=C(O)C(Cc1ccc(O)cc1)N1C(=O)c2c(Cl)c(Cl)c(Cl)c(Cl)c2C1=O (stereo not given) | -12.2 | 0.677 | -1.1 | 3.2 | 1.5 | nt | 1.2 | -7.2 | 1.0 | -0.2
CCOC(=O)c1sc(NC(=O)OC)c(C(=O)OC)c1C | -12.1 | 0.728 | 3.3 | 6.3 | -0.4 | i | 0.7 | 10.2 | 2.8 | -0.5
N#Cc1c(NC(=O)CSc2ncn[nH]2)sc2c1CCCCC2 | -5.6 | 0.653 | nt | 6.8 | 7.3 | nt | -2.6 | nt | nt | nt
O=C(NCCc1ccccc1)c1ccc(NCC2CCCO2)c([N+](=O)[O-])c1 (stereo not given) | 10.1 | 0.69 | 5.6 | 3.1 | 5.9 | i | -0.3 | -2.9 | -0.8 | -3.1
O=C(O)C1CC=CCC1C(=O)Nc1cccc(Cl)c1 (stereo not given) | -2.5 | 0.762 | nt | -1.2 | 3.4 | nt | 0.9 | nt | nt | nt
N#CCCn1cc(/C=C2\NC(=S)N(c3ccccc3)C2=O)c(-c2ccc(-c3ccccc3)cc2)n1 | 28.7 | nt | 1.7 | 6.2 | 1.5 | i | 0.3 | -0.5 | 8.5 | 2.1
COc1cc(CC(=O)OCC(=O)Nc2cc(S(=O)(=O)N3CCCC3)ccc2Cl)cc(OC)c1OC | 12.8 | 0.717 | nt | -1.0 | 1.1 | nt | 0.1 | nt | nt | nt
NC(N)=NS(=O)(=O)c1ccc(NC(=S)NC(=O)/C=C/c2ccc(F)cc2)cc1 | -6.8 | 0.664 | -4.7 | -5.2 | 3.7 | i | 0.4 | 4.6 | -7.4 | -2.7
COc1cc(OC)cc(C(=O)N[C@H](C(=O)OCC(=O)NC(C)c2ccccc2)C(C)C)c1 (stereo not given in full) | -14.3 | 0.716 | nt | -2.2 | -0.8 | nt | 1.7 | nt | nt | nt
CCOC(=O)COc1c(Cl)cc(C2NC(=S)NC(c3ccccc3)=C2C(C)=O)cc1OCC (stereo not given) | -9.0 | 0.645 | nt | nt | 0.5 | nt | -0.3 | nt | nt | nt
CCOC(=O)c1nnc2ccnn2c1N | -10.7 | 0.675 | 2.9 | -6.1 | 4.0 | i | 0.6 | 3.2 | 7.5 | 9.5
COc1cccc(-c2nc(CS(=O)CC(=O)O)c(C)o2)c1 (stereo not given) | -7.3 | 0.753 | -3.9 | -6.2 | 6.8 | i | -0.1 | 4.3 | 11.6 | -1.6
Nc1cc(=O)[nH]c(SCC(=O)Nc2cc(Cl)ccc2Cl)n1 | 0.0 | 0.706 | -10.5 | -4.9 | 0.3 | i | 0.4 | 4.5 | 1.4 | -3.4
CCOc1ccc(S(=O)(=O)N2CCCC(C(=O)N3CCCC3)C2)cc1 (stereo not given) | -7.1 | 0.71 | -5.1 | 0.2 | 4.1 | i | 1.4 | -0.4 | -0.3 | 0.9
COc1ccccc1N(Cc1cc2cccc(C)c2[nH]c1=O)C(=O)C(C)C | 18.3 | 0.704 | nt | 5.5 | -6.0 | nt | ? | nt | nt | nt
CCOC(=O)N1CCN(C2CC(=O)N(c3ccc(Cl)c(Cl)c3)C2=O)CC1 (stereo not given) | nt | 0.816 | nt | -8.4 | 0.0 | nt | -0.2 | nt | nt | nt
O=C(Nc1cc2c(cc1Br)OCCO2)c1ccco1 | 3.2 | 0.705 | nt | -2.7 | 3.9 | nt | -0.3 | nt | nt | nt
O=C(COC(=O)C1CC(=O)N(Cc2ccco2)C1)Nc1ccccc1[N+](=O)[O-] (stereo not given) | nt | 0.68 | 1.8 | nt | 1.3 | i | nt | 3.8 | 16.2 | -0.6
CCCNC(=O)N1CCN(c2nc(C(C)C)c3c(c2C#N)CC(C)(C)OC3)CC1 | 7.1 | 0.715 | -2.9 | nt | -20.3 | i | 0.5 | 3.4 | 3.1 | -6.8
CC(C)c1ccc(N(CC(=O)NCCSC(C)(C)C)S(C)(=O)=O)cc1 | 6.8 | 0.681 | nt | -11.0 | 4.2 | nt | 0.8 | nt | nt | nt
COC(=O)c1ccc(NC(=O)C(=O)N2CCN(C(=S)Nc3ccc(OC)cc3)CC2)cc1 | -1.1 | 0.679 | nt | nt | 2.2 | nt | -0.4 | nt | nt | nt
Cc1ccc(S(=O)(=O)Nc2ccc3c(c2)nc(CCN2CCCC2)n3C)cc1 | 12.8 | 0.679 | 4.0 | 26.7 | 1.1 | i | 0.4 | -8.6 | -1.9 | 5.1
COc1ccc(C(=O)NCC(=O)O)cc1 | -6.8 | 0.685 | nt | -6.1 | 1.3 | nt | 0.4 | nt | nt | nt
O=C(c1cccc2cccc(O)c12)N1CCCCC1 | -10.3 | 0.69 | nt | -6.9 | 5.4 | nt | -0.8 | nt | nt | nt
COc1ccc(C2N=C(c3ccccc3)C(C)(C)N2O)cc1OC (stereo not given) | 12.3 | 0.72 | nt | -10.8 | 2.8 | nt | 1.0 | nt | nt | nt
CNc1oc(-c2ccc(Cl)cc2)nc1P(=O)(c1ccccc1)c1ccccc1 | 26.4 | 0.72 | nt | 0.9 | -39.2 | nt | 1.1 | nt | nt | nt
CC1(C)CC(=O)C=C(NCCN2CCNCC2)C1 | 1.4 | 0.738 | nt | nt | 5.8 | nt | 0.5 | nt | nt | nt
CCC1Oc2ccc(C)cc2N(CC(=O)N(Cc2cccnc2)Cc2ccc(C)o2)C1=O (stereo not given) | 57.1* | 0.712 | nt | 9.9 | 4.3 | nt | 1.0 | nt | nt | nt
Nc1nc2nc(-c3ccc(OCc4ccccc4)cc3)cc(C(F)(F)F)n2n1 | -15.2 | 0.674 | nt | -2.0 | -472.7 | nt | 0.1 | nt | nt | nt
Oc1[nH]c2ccccc2c1N=Nc1ccccc1 | -12.4 | 0.693 | 12.3 | -4.2 | 6.2 | i | -3.6 | 17.4 | 2.4 | 1.1
COc1ccc(C(C(N)=O)c2ncc(C(F)(F)F)cc2Cl)cc1 (stereo not given) | 6.0 | 0.672 | 0.2 | -6.7 | 0.7 | i | 0.4 | 6.5 | -0.7 | 1.9
Cc1ccc2nc(SCC(=O)NCc3ccc4c(c3)OCO4)nc(=O)n2c1 | -10.2 | 0.659 | 0.2 | -0.7 | 8.7 | i | -0.2 | -3.0 | 7.1 | -2.2
COc1ccc(NC2=NC(=S)N(c3ccccc3C)C23CCCCC3)cc1 | -0.5 | 0.702 | nt | 2.8 | 4.4 | nt | -0.4 | nt | nt | nt
Cc1ccc(S(=O)(=O)NNC(=O)c2cnn(-c3ccccc3)c2-n2cccc2)cc1 | -10.2 | 0.737 | nt | -0.1 | 0.2 | nt | -0.4 | nt | nt | nt
O=C(CSc1ncn[nH]1)Nc1ccccc1Sc1ccccc1 | -9.9 | 0.717 | nt | -5.3 | -0.2 | nt | 0.6 | nt | nt | nt
NNc1ccc2nncn2n1 | -3.7 | 0.692 | -5.7 | 3.0 | -0.7 | i | 0.9 | 10.3 | 3.6 | 5.1
CCc1ccccc1NC(=O)CSc1ncn[nH]1 | -3.7 | 0.691 | nt | -4.9 | 0.5 | nt | -0.1 | nt | nt | nt
O=C(COC(=O)c1cc(S(=O)(=O)Nc2ccccc2Cl)ccc1O)Nc1nc2ccccc2s1 | nt | 0.697 | -4.6 | nt | -0.2 | i | nt | -33.5 | -38.0 | -1.8
CCOc1ccc(CC(=O)Nc2nccs2)cc1 | -13.2 | 0.715 | 0.5 | -4.9 | -0.4 | i | 0.3 | 16.3 | 17.0 | 1.1
CCN(CC)C(=O)CSc1nc(O)c(Cc2ccc(OC)cc2)c(=O)[nH]1 | -5.6 | 0.644 | 2.0 | -1.5 | 5.0 | i | 0.9 | 12.3 | 5.7 | 1.4
CCCc1nc(SCC(=O)NCC2CCCO2)c2c(=O)n(C)c(=O)n(C)c2n1 (stereo not given) | -4.6 | 0.707 | -2.0 | 3.0 | 2.0 | i | 0.5 | 27.9 | 14.7 | 2.9
O=C(Cn1nc(Cc2cccnc2)c2ccccc2c1=O)Nc1cccnc1Cl | 9.5 | 0.693 | 0.1 | -1.1 | 0.2 | i | -0.2 | 6.0 | -6.8 | -2.9
CCOC(=O)c1ccc(Oc2ccc(C(F)(F)F)cn2)cc1 | 0.4 | 0.733 | 0.0 | -0.7 | 1.6 | i | 1.1 | 13.6 | 9.0 | 0.7
O=C(O)CC/C(=N\NC(=O)c1ccncc1)c1ccccc1 | 6.0 | nt | 0.6 | nt | nt | i | 0.0 | 6.3 | 10.0 | 0.7
